gsp antagonist = antagonizes gsp, the McCune-Albright syndrome mutation | gsp-mutant cells, cAMP HTRF, 30 min; control for the full effect not named in the record | Potency, µM (top dose mostly 76.9 µM), without a hit: top-dose activity change, negative = inhibition, actives largely listed as inhibitors | actives 0.4% (n = 340,000); active = falling curve of any shape with a large fitted effect; inconclusive = falling curve, mostly with a smaller effect; inactive = flat or rising curve; cell line not stated here;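 also: intracellular cAMP measured with PDE inhibitor Ro 20-1724 present during compound exposure; potency is read from the fitted curve at half-maximal effect; % is scaled to controls: 0 for no effect and ±100 for the full control effect; nearly all actives have a fitted effect of over 65% in size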
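G418-selected cells were plated in DMEM/10% FBS for 16-24 h at 37C, then treated with compounds plus the PDE inhibitor […] (300 uM solution added) for 30 min at 37C. Intracellular cAMP was measured by HTRF after 30 min lysis at room temperature.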
Menin MLL FP FL = displaces fluorescein MLL peptide from human menin. Fluorescence polarization, fluorescein-MLL peptide displacement from menin. FP activity change, % at 61.4 µM. 290,000 tested, under 10 active. AID 1766; inconclusive = falling polarisation curve, or a change in total fluorescence; inactive = total fluorescence flat and polarisation flat or rising; no compound was filed as active; the % refers to the polarisation; negative = inhibition;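 also: % of control where 0% means no effect; inhibitors lower the polarisation; unlabelled MLL peptide was the positive control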
ClpP mod = qHTS Assay for Activators of ClpP. actives 1.9% (n = 340,000). ATP-dependent Clp protease proteolytic subunit (Bacillus subtilis (strain 168)), P80244. purified B. subtilis ClpP, FRET peptide cleavage, 20 min. Potency, µM (doses to about 57.5 µM), inactives show at the highest dose activity change, negative = active; active = well fitted falling curve with a large enough effect; inconclusive = small, poorly fitted or top-dose-only effect; inactive = no such curve, though single readings can be large or run the other way; also: potency is read from the fitted curve at half-maximal effect; the source files actives as falling curves though it sought activators and does not explain the sign; nearly all actives have a fitted effect of over 65% in size; many hits overshoot -100%
Target sequence (P80244 whole entry, looked up): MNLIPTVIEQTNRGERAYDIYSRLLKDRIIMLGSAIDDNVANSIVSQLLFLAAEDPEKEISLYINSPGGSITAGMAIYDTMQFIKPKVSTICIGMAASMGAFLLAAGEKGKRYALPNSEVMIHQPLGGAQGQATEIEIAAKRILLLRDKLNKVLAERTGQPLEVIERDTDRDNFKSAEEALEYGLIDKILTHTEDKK
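ClpP 10 microg/mL final, pH 8 Tris/KCl buffer with BSA, glycerol, Tween-20; compound pinned in; FRET-FV substrate; RT 20 min; Ex320/Em430; ΔFRET vs ADEP 5.8 microM, DMSO, no enzyme.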
D2 potentiator = positive allosteric modulators of human D2 dopamine receptor; P14416; DiscoveRx D2 beta-arrestin cells, luminescence, 90 min; 100% = 57 uM dopamine signal; potentiation, % (concentration not given with the values); actives 0.23% (n = 360,000); active = potentiation of 50% or more; inconclusive = 30% to 50%; inactive = 30% or less;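 also: compound concentration not given in the record; tested on top of an EC20 dose of dopamine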
Target sequence (P14416 whole entry, looked up): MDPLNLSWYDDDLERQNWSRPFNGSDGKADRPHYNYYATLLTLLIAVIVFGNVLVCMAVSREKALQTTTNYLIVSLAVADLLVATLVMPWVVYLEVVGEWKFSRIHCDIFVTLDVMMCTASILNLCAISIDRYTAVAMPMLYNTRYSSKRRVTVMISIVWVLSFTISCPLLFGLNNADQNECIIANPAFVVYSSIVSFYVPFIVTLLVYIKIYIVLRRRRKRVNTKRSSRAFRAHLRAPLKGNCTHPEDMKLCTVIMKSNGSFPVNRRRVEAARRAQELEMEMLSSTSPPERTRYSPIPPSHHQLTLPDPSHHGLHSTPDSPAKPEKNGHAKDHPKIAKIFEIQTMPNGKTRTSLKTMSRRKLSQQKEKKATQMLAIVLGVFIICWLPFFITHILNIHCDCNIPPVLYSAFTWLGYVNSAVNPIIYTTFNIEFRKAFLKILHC
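PathHunter D2 cells, attached overnight at 37 deg C, received compound in DMSO plus dopamine at EC20 (50 nM final) for 90 min at 37 deg C. Beta-arrestin recruitment was read as luminescence after 1 h with detection reagent at ambient temperature.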
gsp agonist = agonists of gsp mutant (McCune-Albright syndrome); AID 624287; Potency, µM (series often up to 76.9 µM), inactives show at the highest dose activation (cAMP increase), actives largely listed as activators; actives 0.13% (n = 340,000); gsp mutant cells, cAMP HTRF, 30 min; control for the full effect not named in the record; active = well fitted activation curve with a large enough effect; inconclusive = small, poorly fitted or top-dose-only effect, or another doubt; inactive = no such curve, though single readings can be large or run the other way; cell line not stated here;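 also: phosphodiesterase inhibitor Ro 20-1724 added with compounds to block cAMP breakdown; potency is read from the fitted curve at half-maximal effect; nearly all actives have a fitted effect of over 60% in size; about a fifth of the inactives were tested at one dose only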
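Cells stably selected in G418 were plated at 2000/well, grown 16-24 hr, then given compounds in DMSO with the PDE inhibitor […] (300 uM solution added) for 30 min at 37C; cAMP was read by HTRF.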
Sfp PPTase inh = inhibitors of Bacillus subtilis Sfp phosphopantetheinyl transferase. Biochemical Sfp PPTase activity, qHTS. Potency, µM, for inactives: max response, negative = inhibition, actives largely listed as inhibitors. actives 3.5% (n = 310,000); active = well fitted inhibition curve with a large enough effect; inconclusive = small, poorly fitted or top-dose-only effect, or another doubt; inactive = no such curve, though single readings can be large or run the other way;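 also: the enzyme is Sfp with the accession as filed and its product quenches rhodamine fluorescence; potency is read from the fitted curve at half-maximal effect; 0% = enzyme reaction without inhibitor and -100% = no enzyme wells; top concentration of the series not given in the record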
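Reaction rates are the 30-min fluorescence difference (ex 525, em 598 nm) in wells containing 15 nM Sfp, 5 uM rhodamine-CoA and 12.5 uM BHQ-2-YbbR at pH 7.6 with 10 mM MgCl2.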
TRPV1 potentiator = human TRPV1 potentiation; Q8NER1; TRPV1-expressing cells, Fluo-8 calcium influx, capsaicin EC20 potentiation; host cell line not named in the record; control for the full effect not named in the record; potentiation, % at 8.33 µM; actives 0.02% (n = 320,000); AID 540277; active means potentiation above 80%; inconclusive means 30% to 80%; inactive means below 30%; also: 0% is about no effect
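Cells expressing TRPV1 were dye-loaded with Fluo-8 and read kinetically: 10 s baseline, 3 min after compound (agonist portion), then 2 min after EC20 capsaicin (allosteric enhancer portion). Calcium-bound dye fluorescence at 480/520 nm.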
The depositor's hits bear a star; ? = inconclusive; nt = no result given; [ ] = remark or other dose.

entry	Structure	gsp antagonist	Menin MLL FP FL	ClpP mod	D2 potentiator
1	Cc1cc(N)n(-c2nc3ccccc3s2)n1	3%	1.0	3.8%	-8
2	CN1CCC(=O)N(CCOc2ccccc2)CC1	-4%	1.6	-3.4%	-26
3	CCOC(=O)C1=C(C)NC(C)=C(C(=O)OCC)C1/C=C/c1ccccc1	7%	-0.7	?	4
4	Cc1ccc(CSCc2ccc(C(=O)NCC3CCCO3)o2)cc1 (stereo unspecified)	7%	-0.6	-1.2%	-6
5	CCN(CC)S(=O)(=O)N1CCC(C(=O)NCC2COc3ccccc3O2)CC1 (stereo unspecified)	-6%	0.3	-1.0%	-2
6	CCN(C[C@H]1N[C@@](Cc2ccccc2)(C(=O)OC)[C@H]2C(=O)N(Cc3ccccc3)C(=O)[C@@H]12)C(=O)C1CCCCC1	-10%	nt	-2.3%	-3
7	O=C(COCC(=O)N/N=C/c1ccccc1F)N/N=C/c1ccccc1F	-14%	0.8	-0.2%	-6
8	CCCc1nnc(NC(=O)CCC(=O)NCc2ccccc2)s1	-13%	nt	-2.8%	-5

entry	gsp agonist	Sfp PPTase inh	TRPV1 potentiator
1	13%	10%	-2
2	9%	-20%	-3
3	5%	28%	-6
4	-16%	13%	-12
5	39%	3%	-3
6	nt	nt	nt
7	-18%[15.4 µM]	0%	-28
8	0%	-2%	-1

6 of the compounds above, in markdown:
| cpd | structure | gsp antagonist | Menin MLL FP FL | ClpP mod | D2 potentiator | gsp agonist | Sfp PPTase inh | TRPV1 potentiator |
| --- | --- | --- | --- | --- | --- | --- | --- | --- |
| 1 | Cc1cc(N)n(-c2nc3ccccc3s2)n1 | 3% | 1.0 | 3.8% | -8 | 13% | 10% | -2 |
| 2 | CN1CCC(=O)N(CCOc2ccccc2)CC1 | -4% | 1.6 | -3.4% | -26 | 9% | -20% | -3 |
| 3 | CCOC(=O)C1=C(C)NC(C)=C(C(=O)OCC)C1/C=C/c1ccccc1 | 7% | -0.7 | ? | 4 | 5% | 28% | -6 |
| 4 | Cc1ccc(CSCc2ccc(C(=O)NCC3CCCO3)o2)cc1 (stereo unspecified) | 7% | -0.6 | -1.2% | -6 | -16% | 13% | -12 |
| 5 | CCN(CC)S(=O)(=O)N1CCC(C(=O)NCC2COc3ccccc3O2)CC1 (stereo unspecified) | -6% | 0.3 | -1.0% | -2 | 39% | 3% | -3 |
| 6 | CCN(C[C@H]1N[C@@](Cc2ccccc2)(C(=O)OC)[C@H]2C(=O)N(Cc3ccccc3)C(=O)[C@@H]12)C(=O)C1CCCCC1 | -10% | nt | -2.3% | -3 | nt | nt | nt |

Continuation.
entry	Structure	gsp antagonist	Menin MLL FP FL	ClpP mod	D2 potentiator
9	CN(C)N1C(=O)CC(N2CCCCC2)C1=O (stereo unspecified)	nt	2.2	nt	5
10	C/C(=N/NC(=O)c1cccs1)c1ccc(NC(=O)COc2ccc(Cl)cc2Cl)cc1	4%	3.9	?	-10
11	O=C(Nc1ccc(N2CCN(Cc3ccccc3Cl)CC2)cc1)c1cccnc1	7%	-0.2	-10%	-6
12	COc1ccc(NC2CCCN(C(=O)C3(C)CCCCC3)C2)cc1 (stereo unspecified)	8%	-1.4	-5.6%	-3
13	Cc1ccc(NC(=O)COC(=O)c2cc(=O)c3ccccc3o2)cc1F	4%	nt	-1.3%	-6
14	CC(Sc1nnc(C2CC2)n1C1CC1)C(=O)Nc1cccc(S(=O)(=O)N2CCOCC2)c1 (stereo unspecified)	-6%	nt	-0.9%	3
15	Cc1nn(C)cc1CN1CCC(CO)(CCOc2ccccc2)CC1	-6%	4.0	3.8%	-7
16	COc1ccc(Cc2nn3c(-c4ccccc4Br)nnc3s2)cc1	-7%	0.1	-2.8%	2

entry	gsp agonist	Sfp PPTase inh	TRPV1 potentiator
9	7%[15.4 µM]	12%	0
10	1%	-17%	24
11	5%	4%	17
12	-6%	10%	-8
13	-19%	nt	-17
14	19%	nt	-1
15	-65%[inhibitor]	1%	6
16	-4%	-26%	6

entry	Structure	gsp antagonist	Menin MLL FP FL	ClpP mod	D2 potentiator
17	NC(=O)C1(NC(=O)[C@@H]2CC3(CC(c4cccc(NC(=O)c5cc([N+](=O)[O-])cc([N+](=O)[O-])c5)c4)=NO3)CN2C(=O)c2ccccc2)CC1 (stereo partly specified)	1%	7.3	-1.3%	23
18	CSCCC(NC(=O)c1ccccc1)C(=O)OCC(=O)Nc1ccc(C)c(Cl)c1 (stereo unspecified)	-32%	5.3	2.3%	-18
19	COc1ccccc1-n1ccnc1SCC(=O)NC1CCCC1	-9%	1.2	nt	-22
20	CN(C)S(=O)(=O)c1ccc(NC(=O)COC(=O)c2ccccn2)cc1	0%	1.2	-1.6%	-9
21	C[C@@H](C(=O)Nc1nc2ccc(F)cc2s1)N1C(=O)C2CC=CCC2C1=O (stereo partly specified)	-18%	-0.2	nt	-6
22	CC12CC(NC(=O)N1CCc1ccccc1)c1cc(Cl)ccc1O2 (stereo unspecified)	-8%	3.2	2.6%	-14
23	O=C(NCC1CCCO1)c1ccccc1NS(=O)(=O)c1ccc(F)cc1 (stereo unspecified)	-15%	nt	?	-3
24	COc1ccccc1NC(=S)NCCc1ccc(Cl)cc1	-3%	3.7	-2.4%	-10

entry	gsp agonist	Sfp PPTase inh	TRPV1 potentiator
17	?	79µM*	-1
18	3%	22%	?
19	15%[15.4 µM]	0%	6
20	-25%	12%	2
21	18%	9%	-19
22	?	14%	17
23	11%	nt	5
24	1%	7%	-7

entry	Structure	gsp antagonist	Menin MLL FP FL	ClpP mod	D2 potentiator
25	CC(=O)N1CCc2cc(S(=O)(=O)CCC(=O)NCc3ccc(F)cc3)ccc21	1%	nt	-2.2%	-24
26	COc1ccc(S(=O)(=O)N2CCOC2CNC(=O)C(=O)NCc2ccc(F)cc2)cc1OC (stereo unspecified)	2%	nt	-2.4%	-7
27	Cc1sc2ncn(CCn3cnc4sc(C)c(C)c4c3=O)c(=O)c2c1C	-14%	2.5	-1.3%	-1
28	CC(C)Cn1c(N2CCN(C(=O)/C=C/c3ccccc3)CC2)nc2ccccc21	?	1.5	0.7%	-21
29	Cn1c(N)c(C(=O)COC(=O)C2CCC(C(C)(C)C)CC2)c(=O)n(C)c1=O (stereo unspecified)	-9%	2.2	-1.3%	-4
30	CC(C)(C)n1ncc2c(=O)n(Cc3ccc(Cl)cc3Cl)cnc21	-12%	-4.8	-4.6%	-8
31	Cc1ccc(CNC(=O)c2cc(=O)c3ccc(C)cc3o2)cc1	5%	-1.4	1.8%	-31
32	CCN1CCN(CCCNC(=O)C2c3ccccc3C(=O)N(C)C2c2ccc(OC)cc2)CC1 (stereo unspecified)	4%	3.6	0.8%	-3

entry	gsp agonist	Sfp PPTase inh	TRPV1 potentiator
25	26%	6%	-3
26	-30%[inhibitor]	2%	2
27	10%	-8%	7
28	-78%[inhibitor]	-30%	-15
29	?	9%	-31
30	4%	-6%	-15
31	-1%	-12%	-9
32	-17%	4%	-43

entry	Structure	gsp antagonist	Menin MLL FP FL	ClpP mod	D2 potentiator
33	CSc1ccccc1NC(=O)CN(C)CC(=O)Nc1ccc(S(=O)(=O)N2CCCC2)cc1	1%	nt	nt	1
34	CC(=O)Nc1ccc(C(=O)COC(=O)C2CCCCC2)c(F)c1	-6%	nt	-0.1%	-23
35	COc1cc(C#N)ccc1OCC(=O)Nc1ccc(C)c(S(=O)(=O)N2CCOCC2)c1	-15%	-1.5	-2.9%	-11
36	O=C(N/N=C/c1ccco1)c1ccc(NC(=O)c2ccccc2Cl)cc1	-14%	-0.6	nt	-11
37	COC(=O)CSc1nc2ccccc2c(=O)n1C	10%	0.7	-0.4%	6
38	O=C(Nc1cccc(C(=O)O)c1)/C(=C\c1ccco1)NC(=O)c1ccc(Br)o1	0%	-1.5	nt	-4
39	CC1CCCC(C)N1C(=O)COC(=O)CNC(=O)C12CC3CC(CC(C3)C1)C2 (stereo unspecified)	2%	nt	1.2%	-2
40	O=C(Nc1ccc2c(c1)oc1ccc(S(=O)(=O)N3CCCC3)cc12)C1CC1	-16%	-1.0	-19%	3

entry	gsp agonist	Sfp PPTase inh	TRPV1 potentiator
33	?	nt	nt
34	-2%	nt	-7
35	-12%	24%	5
36	-1%[15.4 µM]	18%	-26
37	8%	3%	-7
38	-1%	?	6
39	-1%[15.4 µM]	nt	-3
40	0%	-8%	17

entry	Structure	gsp antagonist	Menin MLL FP FL	ClpP mod	D2 potentiator
41	NC(=O)[C@H]1CC2(CC(c3cccc(NC(=O)COc4ccc(Cl)cc4)c3)=NO2)CN1C(=O)[C@H]1CCC(=O)N1 (stereo partly specified)	-4%	-2.4	-5.1%	-8
42	Cc1nn(-c2ccccc2)c(C)c1NC(=O)COc1ccc(Cl)cc1Cl	50µM*	0.8	-9.5%	5
43	CC(=O)Nc1sc(C)c(C)c1C(=O)OCCOc1ccccc1	?	-0.8	nt	-13
44	O=C(NCCc1ccccc1)c1ccc(NC(=O)C2CCC2)cc1	2%	nt	1.2%	-3
45	O=C(COC(=O)c1cccc(S(=O)(=O)N2CCc3ccccc3C2)c1)NCc1ccco1	-10%	1.2	-0.7%	0
46	CC(C)CCn1c(=O)c(C(=O)N/N=C/c2cccc(F)c2)c(O)c2ccccc21	16%	3.4	-3.6%	0
47	COc1cc(NC(=O)CN2c3ccccc3CC2C)cc(OC)c1OC (stereo unspecified)	3%	0.0	0.5%	-30

entry	gsp agonist	Sfp PPTase inh	TRPV1 potentiator
41	nt	7%	-16
42	-25%	-33%	0
43	-18%[15.4 µM]	-13%	0
44	nt	nt	nt
45	?	?	2
46	-39%[inhibitor]	-1%	5
47	-46%[inhibitor]	5%	5
